High-throughput results (PubChem BioAssay)
Arbovirus anti: blocks arbovirus infection. arbovirus infection cell-based antiviral screen. inhibition, % at 10 µM. 200,000 tested, 0.37% active. AID 1251;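 active = inhibition from about 30%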;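 note: bluetongue infection of BSR cells; cell survival read as ATP light after 72 h; 0% = infected wells without compound and 100% = uninfected wells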
Mtb growth: M. tuberculosis H37Rv growth inhibitors, H37Rv strain (AID 1626). M. tuberculosis H37Rv growth inhibition; higher % means a stronger effect. 220,000 tested, 0.95% active. inhibition, % at 10 µM; hits with a dose series show IC50 in µM;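 active = confirmed in a dose series; inconclusive = inhibition above 80% but not taken into the dose series; inactive = below 80% or under 30% at every dose of the series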;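 note: bacteria incubated seven days before Alamar blue readout; 0% = bacteria only wells and 100% = bacteria with antibiotic wells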
RecA splice inh: Mtb RecA intein splicing inhibition. P9WHJ3. cell-free RecA intein splicing, fluorescence. inhibition, %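 (about 9 µM by stock and volumes)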. 290,000 tested, 0.75% active; in the data active = inhibition above about 30%; inconclusive = no clear call, values can overlap the other calls;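 note: 0% = vehicle wells and 100% = reference inhibitor control wells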
Target sequence (P9WHJ3 whole entry, looked up, canonical isoform): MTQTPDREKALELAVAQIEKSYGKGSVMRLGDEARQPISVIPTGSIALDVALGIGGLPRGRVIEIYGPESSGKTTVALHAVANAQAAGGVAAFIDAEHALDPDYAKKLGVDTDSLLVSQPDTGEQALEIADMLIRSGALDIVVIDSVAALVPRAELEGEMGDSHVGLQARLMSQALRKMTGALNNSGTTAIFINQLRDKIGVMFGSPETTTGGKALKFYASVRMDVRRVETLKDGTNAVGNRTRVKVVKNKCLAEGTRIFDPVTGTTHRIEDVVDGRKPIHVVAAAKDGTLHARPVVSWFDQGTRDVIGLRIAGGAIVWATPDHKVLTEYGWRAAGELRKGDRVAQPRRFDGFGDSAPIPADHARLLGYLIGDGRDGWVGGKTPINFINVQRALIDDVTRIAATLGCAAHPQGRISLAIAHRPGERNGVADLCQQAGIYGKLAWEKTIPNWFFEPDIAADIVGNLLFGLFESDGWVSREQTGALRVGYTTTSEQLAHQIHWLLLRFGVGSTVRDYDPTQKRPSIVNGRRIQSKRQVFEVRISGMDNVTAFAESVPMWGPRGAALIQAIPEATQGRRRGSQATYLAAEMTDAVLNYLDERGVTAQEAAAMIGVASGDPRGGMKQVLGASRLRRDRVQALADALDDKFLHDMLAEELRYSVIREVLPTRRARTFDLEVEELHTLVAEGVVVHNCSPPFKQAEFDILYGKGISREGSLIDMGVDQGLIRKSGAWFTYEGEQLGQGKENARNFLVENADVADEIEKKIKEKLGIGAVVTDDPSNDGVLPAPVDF
YopH PTP inh: inhibitors of Yersinia enterocolitica YopH tyrosine phosphatase | fluorescence Ex485/Em525 | inhibition, %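 (about 10 µM by stock and volumes)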 | 140,000 tested, 0.16% active;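 active = inhibition of 50% or more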;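 note: controls were vehicle for no effect and minimum signal wells for full effect; inactives centre near -20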
Mtb bLac sens: beta-lactam sensitization of Mtb H37Rv. M. tuberculosis H37Rv growth with meropenem, percent inhibition; hits of this screen are not shown here. inhibition, % at 25 µM. 330,000 tested, 0.27% active;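 active = about 74% or more and at least 40 points above the plate without the antibiotic, then above 30% in a dose series; inconclusive = first-round hits that could not be retested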;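 note: growth measured after seven days incubation then overnight dye step; 0% = bacteria only wells and 100% = bacteria with antibiotic; twin plates without the antibiotic show which effects depend on it; some results filed as inactive read as strong as hits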
Arbovirus anti repeat: also measured in Arbovirus anti; calls as there; inhibition, %; measured here: 10K subset replicate screen; many hits read low in the repeat;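 first of two repeat runs on a subset; 0% = infected and 100% = uninfected wells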
* = called active by the depositor; ? = inconclusive; . = not tested or not shown. A portion of the library, so the mix of outcomes need not match the whole.

SMILES | Arbovirus anti | Mtb growth | RecA splice inh | YopH PTP inh | Mtb bLac sens | others
C=CCn1c(-c2cc(OC)cc(OC)c2)n[nH]c1=S | 4 | 5% | 0.4 | -42 | 8
CCOc1ccc2oc(=O)cc(C)c2c1 | 5 | 0% | 0.6 | -6 | -4
CC(C)C(=O)Nc1sc2c(c1C#N)CCCCC2 | 0 | -6% | 6.0 | -29 | -3
O=C(NC1CCCCCC1)c1ccc(S(=O)(=O)NCc2ccco2)cc1 | 4 | 11% | 0.7 | -5 | 0
CCCOc1ccc(Br)cc1/C=N/O | 2 | -6% | 6.5 | -7 | 50
COc1cc(OC)c(C(=O)NC23CC4CC(CC(C4)C2)C3)cc1OC | . | . | -6.5 | . | 3
CS(=O)(=O)N(CCC(=O)O)Cc1ccccc1 | 8 | 2% | 7.2 | -35 | -8
CCCCCCn1c(=O)c(C(=O)Nc2ncccc2O)c(O)c2ccccc21 | . | . | -3.9 | . | 8
CCOC(=O)C(C)OC(=O)C1=C(C)NC(=O)NC1c1ccc2c(c1)OCO2 (stereo not given) | . | . | 3.0 | . | 0
Cc1ccc(-c2nn(-c3ccccc3)cc2/C=C2\SC(=S)N(CCCCCC(=O)O)C2=O)o1 | . | . | 4.5 | . | 10
CC(C)(C)c1cc(C(=O)NCc2ccco2)ccn1 | 2 | 9% | 1.7 | -39 | 9
O=C(COc1ccccc1)NCc1ccc2c(c1)OCO2 | -5 | 6% | -2.9 | -30 | 14
COCCn1c(=NC(C)=O)sc2cc([N+](=O)[O-])ccc21 | 4 | 4% | 0.0 | -27 | 3
Cc1ccc(NC(=O)C2(c3ccccc3)CCCC2)nc1 | . | -14% | . | -22 | 9
Cc1ccc2c(c1)C1CN(C)CCC1N2C(=O)Nc1ccc(Cl)cc1 (stereo not given) | -36 | 8% | . | -30 | .
COc1ccc(S(=O)(=O)Cc2ccc(C(=O)NC3CC3)o2)cc1 | 9 | 7% | -0.7 | -39 | ? | Arbovirus anti repeat=-1
COc1cc(/C=N/NC(=O)Cc2ccc(Br)cc2)cc(OC)c1O | -6 | -11% | -4.6 | . | 2
O=S(=O)(c1ccc2ccccc2c1)N(CC1CO1)c1ccccc1 (stereo not given) | 10 | -2% | 13 | . | -1
CCOC(=O)N1CCC(NC(=O)CN2C(=O)CSc3ncccc32)CC1 | 3 | -8% | 1.1 | 0 | 0 | Arbovirus anti repeat=3
CC(NC(=O)c1cccnc1)c1ccc2c(c1)OCO2 (stereo not given) | -3 | 2% | -4.8 | -11 | .
CCCc1cc(C(N)=O)c(NC(=O)c2ccco2)s1 | -2 | -3% | . | -21 | -3
Cc1ccc2nc(-c3cccc(NS(C)(=O)=O)c3)cc(-c3ccccc3)c2c1 | -32 | ? | 17 | -6 | 96
COc1ccc(CCCC(=O)O)c(C)c1 | -4 | -9% | -3.5 | -1 | 6
Cc1ccc(NC(=O)C2CCCN(S(=O)(=O)c3cccc4nonc34)C2)cc1 (stereo not given) | . | . | 0.2 | . | 3
CC(=O)Nc1ccc(S(=O)(=O)N2CN(c3ccc(C)cc3)c3nc4ccccc4nc32)cc1 | . | . | -1.3 | . | 5
NC(=O)c1ccccc1N/C=C/C(=O)c1ccc(Cl)cc1Cl | -9 | . | -1.3 | -2 | .
COc1ccc(N2CC(C(=O)Nc3nc4ccc(F)cc4s3)CC2=O)c(OC)c1 (stereo not given) | . | . | 2.9 | . | 26
CCOC(=O)C1=C(CN2CC(C)CC(C)C2)NC(=O)NC1c1ccc2c(c1)OCO2 (stereo not given) | -12 | . | . | . | -4
CC(=O)Cc1nsc(NC(=O)c2ccc(-c3cccc(C(F)(F)F)c3)o2)n1 | 7 | -5% | -1.2 | 0 | 1
Cc1oc2nc(SCC(=O)N3CCCCC3)nc(N)c2c1C | -1 | -4% | 0.7 | -13 | 4
C#CCOCCOCCOCCNc1nc(N2CCN(C(=O)[C@H](CCCCN)n3cc([C@@H](N)CC(C)C)nn3)CC2)nc(N2CCN(C(=O)[C@H](Cc3ccc(O)cc3)n3cc([C@@H](N)CC(C)C)nn3)CC2)n1 | 5 | . | 1.3 | . | 92
COc1ccccc1CNC(=O)CSC1=NCCS1 | -2 | 2% | 2.3 | . | 1
Cn1ncc(C(N)=O)c1NC(=S)NC(=O)c1ccc(Br)o1 | -5 | 4% | -1.4 | . | -3
CCOC(=O)C1=C(Cc2ccc(OC)cc2)C(=O)c2ccccc2C1=O | -46 | . | . | 29 | .
CC1CC(C)CN(S(=O)(=O)c2ccc(C(=O)N3CC(C)OC(C)C3)cc2)C1 (stereo not given) | . | . | 0.6 | . | -2
Cc1cccc(C)c1NC(=O)CCCCCC1NC(=O)NC1C (stereo not given) | 2 | -3% | 0.8 | . | -4
CCOCCCNC(=O)CN1C(=O)/C(=C/c2ccccc2C)Sc2ccccc21 | -2 | 8% | -1.4 | . | 4
Cc1nn(Cc2ccccc2Cl)c(Cl)c1C(=O)NCCc1ccccc1 | 12 | 11% | . | -32 | 1
Cc1cc(C)nc(/N=C(\N)c2c(O)[nH]c(=O)[nH]c2=O)n1 | 6 | -5% | 3.0 | -40 | -2
CCN(CC)c1ccc(NC(=O)C2CCCC2)cc1 | . | . | -2.6 | . | 9
CS(=O)(=O)c1nc(S(=O)(=O)c2ccc(Cl)cc2)c(N2CCCCCC2)s1 | . | . | 4.6 | . | 0
C[C@H](NC(=O)c1ccco1)C(=O)NCCc1ccc(S(N)(=O)=O)cc1 | . | -8% | -1.0 | . | -7
Cc1cc(C)c2c(-n3cccc3)c(C(=O)O)sc2n1 | 4 | -3% | -1.3 | -42 | ?
CCOc1cc(N2CCOCC2)c(OCC)cc1NC(=O)c1ccco1 | 8 | -1% | 0.4 | . | 2
Cc1ccccc1C1(CCN2CCCCC2)CCOC(C)(C)C1 (stereo not given) | -1 | 1% | -1.8 | -24 | 2
Cc1ccc2c(c1)NC(=O)C(CC(=O)NCCCN1CCCC1)O2 (stereo not given) | -2 | -4% | -0.7 | -48 | -2
CCOc1ccc(S(=O)(=O)n2cnc3cc(C)c(C)cc32)cc1 | 18 | 12% | 4.6 | -39 | 10
CCCCN1C(=O)/C(=C/c2ccc(N(C)C)cc2)C(=O)N(Cc2ccco2)C1=O | 2 | -3% | 3.4 | -2 | 1
COCCCn1c2nc3ccccc3nc2c2c(=O)n(CC3CCCO3)cnc21 (stereo not given) | -2 | -8% | -6.6 | -46 | -3
COc1ccc(CN(CC2CCCO2)C(=O)c2cc3ccccc3oc2=O)cc1 (stereo not given) | 16 | 1% | 3.6 | . | 7
Next section
SMILES | Arbovirus anti | Mtb growth | RecA splice inh | YopH PTP inh | Mtb bLac sens | others
CCN1CCN(c2cc3nc(C)n(Cc4ccccc4)c(=O)c3cc2NC(=O)c2ccccc2F)CC1 | -34 | -1% | . | . | 6
Cc1cc(NC(=O)c2cc(C(C)C)on2)no1 | 4 | 16% | -0.5 | 6 | .
CS(=O)(=O)N(CC(=O)Nc1ccccc1C(=O)N1CCOCC1)c1ccc(Cl)cc1 | . | -4% | 1.6 | . | -4
Cc1ccccc1-c1nn[nH]n1 | 4 | 0% | 5.4 | -10 | -1
COc1ccc(-c2ccccc2NC(=O)C2CCCN(Cc3ccco3)C2)cc1 (stereo not given) | . | . | 2.1 | . | -3
COc1ccc(CCNC2CC(=O)N(C3CCCCC3)C2=O)cc1OC (stereo not given) | 0 | -1% | 0.4 | . | -13
Cc1[nH]c2ccccc2c1CN1CCC(CO)(Cc2ccccc2)CC1 | 17 | -4% | 2.5 | . | 2
CCN1CCN(C(=O)c2cc(COc3c(C)cccc3C)on2)CC1 | . | . | 0.5 | . | 6
C=CCn1c(Cc2cccc3ccccc23)n[nH]c1=S | 1 | -1% | 12 | -35 | 1
Cc1cc(C)nc(N2CCC(C(=O)NCc3ccco3)CC2)n1 | -2 | 0% | -2.8 | -7 | -3
CC(C(=O)OCC(=O)c1cccc([N+](=O)[O-])c1)N1C(=O)C2C3C=CC(C3)C2C1=O (stereo not given) | . | . | -2.5 | . | 2
O=C1C(=O)N(Cc2ccncc2)C(c2cccc(O)c2)/C1=C(\O)c1ccc2c(c1)OCCO2 (stereo not given) | . | . | -0.5 | . | -6
CC(C)(C)N1OC2CC1c1nc3ccccc3n1C2 (stereo not given) | . | -11% | 3.3 | . | -6
COc1c(C)cc(Br)cc1C(=O)Nc1cccc(-c2nc3ncccc3o2)c1 | 4 | 10% | 2.4 | -43 | -7 | Arbovirus anti repeat=-21
Cc1c(C(=O)N(Cc2nccn2C)C(C)C)oc2c(F)cccc12 | . | . | 1.0 | . | 3
O=C(CNC(=S)N(CCCN1CCOCC1)Cc1cccs1)NC1CCCC1 | 0 | 5% | . | . | -11
CC1(C)CC(=O)C(C=NCCN2CCN(CCCCS(=O)(=O)O)CC2)=C(O)C1 | 7 | 0% | 0.5 | -42 | 0
COc1cc(CCC(=O)OCC(=O)Nc2ccccc2OC(F)F)cc(OC)c1OC | 1 | -5% | -1.3 | . | 2
COC(=O)c1ccc(COc2ccc(/C=N/O)cc2)o1 | 2 | 1% | 2.6 | . | 3
COc1cc(O)c(C(CCN2CCCC(C)C2)c2cc(OC)c(OC)c(OC)c2)c(OC)c1 (stereo not given) | . | -16% | 0.0 | . | -10
CC[C@@H]1CC=C[C@H]2[C@H]1C(=O)N(Cc1ccccc1)[C@H]2c1ccc(OC)c(Cl)c1 | . | 6% | 12 | . | 2
Cc1ccc(C23CC4CC(CC(CC(=O)NC(C)(C)CO)(C4)C2)C3)cc1 | . | . | -0.4 | . | 13
CCc1ccc(NS(=O)(=O)c2cc3c4c(c2)CCN4C(=O)CC3)cc1 | . | . | 3.7 | . | -7
CC1CCCCN1C(=O)Cn1c(=O)n(C2CCCCC2)c(=O)c2ccccc21 (stereo not given) | 0 | 2% | -16 | -52 | 5
O=C(Cc1ccc2c(c1)OCCO2)c1c(O)cc(O)cc1O | 2 | -9% | -1.5 | -27 | 0 | Arbovirus anti repeat=0
CCOc1ccc(C(Nc2ccc(C)cc2)P2(=O)OCCC(C)O2)cc1 (stereo not given) | 2 | -11% | -1.2 | 9 | 6
O=C(C[n+]1cc(-c2ccccc2)n2c1CCC2)Nc1nc(-c2ccc(F)cc2)cs1 | -6 | 20µM* | 13 | -32 | 91
O=C1NN(c2ccccc2)C(=O)/C1=C\c1cccc(OC(=O)c2cccs2)c1 | -34 | ? | 22 | -7 | -5
S=C(NCCc1ccccc1)NCC1CCCO1 (stereo not given) | -2 | 4% | 0.3 | -37 | -6
CCOc1cc(/C=C2\SC(=S)N(C(C(=O)O)c3ccccc3)C2=O)ccc1O (stereo not given) | . | -3% | 7.0 | . | 0
CCOc1ccc(OCCC(=O)N2CCN(S(=O)(=O)c3ccc(OCC)cc3)CC2)cc1 | . | . | -3.5 | . | -17
CCN(CC)CCN(C(=O)c1ccc(Br)s1)c1nc2cc3c(cc2s1)OCO3 | 0 | 4% | 3.4 | . | -6
Nn1c(SCc2ccc(Br)cc2)nnc1-c1ccncc1 | -23 | 1% | -3.5 | . | 9
O=C(c1ccc(Cl)cc1)N1CCC(O)(CSc2ccc(Cl)cc2Cl)CC1 | -41 | 13% | 13 | -27 | 5
Cc1ccc(OC(=O)c2ccc(C)c(C)c2)cn1 | 1 | -5% | 4.5 | -1 | 62
O=C(NCCCn1ccnc1)/C(=C/c1ccc(F)cc1)NC(=O)c1ccccc1 | . | . | 1.2 | . | 1
O=c1oc2c(CN3CCOCC3)c(O)ccc2c2ccccc12 | -1 | 3% | -7.0 | 11 | -1
CCOC(=O)C1CCN(Cc2ccc(N(C)C)cc2)CC1 | 4 | -2% | . | -29 | -5
O=C(O)CCCCCNc1nc2ncn(Cc3ccccc3)c2c(=O)[nH]1 | 9 | -7% | -1.4 | -43 | 0
